# High-throughput results as filed in PubChem.
# HTT promoter inh: HTT promoter inhibition | HEK293 HTT promoter firefly luciferase reporter (activity 0% = vehicle and -100% = no light), 24 h | Potency, µM (doses to about 57.5 µM), for the others: at the top dose activity change, negative = inhibition, usual class: inhibitors | 48,000 compounds, 0.93% hits; active = well fitted inhibition curve with a large enough effect; inconclusive = small, poorly fitted or top-dose-only effect; inactive = no such curve, though single readings can be large or run the other way; also: nearly all actives have a fitted effect of over 50% in size
#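 HEK293 cells carrying firefly luciferase reporters were seeded at 2,500 per well in Opti-MEM and cultured for 24 h. They were then treated with compounds at up to 57.5 uM final for 24 h at 37 degrees C before Dual-Glo luminescence readout.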
# PMP22 txn prim: modulates PMP22 transcription in S16 Schwann cells. S16 Pmp22-F2sN Schwann cells (luciferase reporters placed in the Pmp22 gene), FLuc/NLuc coincidence luminescence, 24 h. Potency, µM (highest dose often 57.5 µM), inactives show top-dose activity change, negative = inhibition, actives largely listed as inhibitors. 43,000 compounds, 2% hits. AID 1508649; active = clear falling dose curves in both reporters; inconclusive = both reporters move, but less clearly or upward; inactive = either reporter flat; the % is the NLuc reporter signal; also: % is scaled to controls: 0 for no effect and ±100 for the full control effect; some results filed as inactive show a strong effect at the top dose
#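 qHTS, 1536-well. Cells seeded, compounds added by pin tool, 24 h 37C. Nano-Glo reagent 1 (lysis/FLuc), 10 min RT, read; Stop&Glo, 10 min RT, read NLuc.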
# An asterisk follows results filed as active; ? = inconclusive; · = not tested or not shown; & = joins results of further samples; [ ] = remark or other dose. Potency is read from the fitted curve at half-maximal effect.
# Sample of the layout (two entries):
SMILES,HTT promoter inh,PMP22 txn prim
COc1cccc(N2CCN(S(=O)(=O)c3cc(-c4cc(C)no4)ccc3C)CC2)c1,-4%,-7%
O=C(CN1C(=O)CCSc2ccccc21)Nc1ccccc1F,-14%,-5%

# This part in full (from the top)
SMILES,HTT promoter inh,PMP22 txn prim
COc1cccc(N2CCN(S(=O)(=O)c3cc(-c4cc(C)no4)ccc3C)CC2)c1,-4%,-7%
O=C(CN1C(=O)CCSc2ccccc21)Nc1ccccc1F,-14%,-5%
COc1ccc(-c2nc3ccccc3o2)cc1NC(=O)c1ccc(OCC(C)C)cc1,5%,?
CCOc1ccccc1CNC(=O)c1cc2n(n1)CCCN(Cc1ccc(C)cc1)C2=O,?,?
COc1ccc(OC)c(NC(=O)CCNC(=O)Cn2cnc3ccccc3c2=O)c1,-12%[11.5 µM],2%
Cc1ccc(Cl)cc1N1CCN(C(=O)CCCn2c(=O)[nH]c3ccc(Br)cc3c2=O)CC1,?,?
Cc1cccc(C(=O)Nc2ccc3nc(SCC(=O)N4CCCC4)sc3c2)c1,-16%,?
CCCCC(=O)OC1=C(C(=O)c2ccccc2)N(C)S(=O)(=O)c2ccccc21,?,-13%
Cc1ccc(-c2cc(C(F)(F)F)n3nc(C(=O)Nc4ccc(Cl)c(C(F)(F)F)c4)cc3n2)cc1,-3%,-8%
CCn1c(SCc2ccccc2Cl)nc(=O)c2c(C(=O)OC)cc(C3CC3)nc21,?,?
Cc1ccc2cccc(NC(=O)COc3ccccc3Cl)c2n1,-5%,-26%
Cc1ccc(CNC(=O)Cc2c(C(=O)O)c(C)cn2C)cc1,-5%,14%
CN(C)C(=S)SC(=S)N(C)C,?,·
COc1cccc(C(=O)N(Cc2ccc(N(C)C)cc2)Cc2ccco2)c1,-23%,-34%
COc1ccccc1N1CCN(CCCNC(=O)c2cnn(-c3ccccc3)c2C2CCN(C(=O)OC(C)(C)C)CC2)CC1,-10%,?
Cc1ccccc1Nc1c(-c2c(F)cccc2Cl)nc2ccc(Br)cn12,-23%,26%
CCc1ccc(NCc2cc3cc4c(cc3n(CC(=O)Nc3ccccc3Cl)c2=O)OCO4)cc1,-36%,?
Cc1ccc(NC(=O)Cc2coc3ccc(C(C)C)cc23)c(C)c1,-24%,?
COCCn1c(CCC(=O)Nc2cc(C)ccc2C)nc2cccnc21,10%,0%
CCOc1ccccc1NC(=O)Cn1c(=O)n(Cc2nc(C)no2)c(=O)c2ccccc21,-9%,1%
COc1ccc(-c2cn3nc(N4CCC(C(=O)Nc5ccc(Cl)cc5C)CC4)sc3n2)cc1,-8%,1%
Cc1ccc2nc(-c3ccc(NC(=O)Cc4ccccc4)cc3)sc2c1,60%[activator],36%
Cc1ccc(Cc2nc3ccccc3nc2SCC(=O)NCc2ccc(F)cc2)cc1,-3%,?
Cc1c(Cl)cccc1NC(=O)c1cc2nc(-c3ccc4c(c3)OCO4)cc(C(F)(F)F)n2n1,5%,0%
CCS(=O)(=O)N1CCc2cc(C(=O)Nc3ccc(OC)cc3OC)ccc21,-12%,0%
CCN(CC)CCNC(=O)c1ccc2c(=O)n3nc(Nc4ccccc4)sc3nc2c1,-18%,-14%
O=C(COc1ccc(Cl)cc1)NCC(c1ccco1)S(=O)(=O)c1ccc(Cl)cc1 (centres undefined),?,?
Cc1ccc(C)c(NC(=O)c2ccc3c(c2)CCCN3S(C)(=O)=O)c1,34%[activator],?
CCOc1ccc(-c2cc(OC(=O)c3ccc(OC)cc3)c3c(C)oc(C)c3c(=O)c2)cc1,-25%,-12%
O=C(Cn1c(=O)nc(-c2ccccc2F)c2cc(Cl)ccc21)N1CCN(c2ccccc2F)CC1,-11%,?
CCCCN(CCCC)C1=C(C(=O)c2ccccc2)N(CC)S(=O)(=O)c2ccccc21,?,?
CCN(Cc1ccccc1)C(=O)C(CC(C)C)NS(=O)(=O)c1ccc2c(c1)CCN2C(C)=O (centres undefined),-16%,8%
O=C(NCC(c1ccc2c(c1)OCO2)N1CCN(c2ccccc2)CC1)C(=O)Nc1cccc(F)c1 (centres undefined),-11%,-6%
COc1ccc(C(=O)Nc2nnc(S(=O)(=O)N3CCC(C)CC3)s2)cc1OC,-8%,-13%
CC(=O)c1cccc(NC(=O)Cn2nc(C(F)(F)F)c3c2CCC3)c1,-23%,?
Cc1cc(S(=O)(=O)Nc2cccc(C(=O)O)c2)c(C)c(S(=O)(=O)c2ccccc2)c1,-15%,6%
O=C(Nc1ccc(C(=O)OCc2cc(=O)n3c4c(sc3n2)CCCC4)cc1)c1ccccc1,-10%,-7%
O=c1c(S(=O)(=O)c2ccc(Cl)cc2)cn(Cc2ccc(F)cc2)c2ccc(F)cc12,-23%,-16%
Cc1cccc(NC(=O)c2sc3nc4c(cc3c2N)CN(C(C)C)CC4)c1,?,-10%
O=C(C1CCN(S(=O)(=O)c2ccc(Br)s2)CC1)N1CCN(c2cccc(C(F)(F)F)c2)CC1,?,?
O=C(Cn1nnc(-c2cccc(C(F)(F)F)c2)n1)NCc1ccc(F)cc1,-12%,-6%
CCC(C)Sc1nc2c([nH]c3ccccc32)c(=O)n1C (centres undefined),-1%,?
O=C(CCn1ccc2cc(S(=O)(=O)N3CCCC3)ccc21)NCc1cccc(Br)c1,?,?
Cc1cc(C)cc(NC(=O)c2cn3c4c(ccc(Cl)c4c2=O)OC(C)C3)c1 (centres undefined),-7%,13%
O=C(CCn1cnnn1)Nc1ccccc1,-4%,?
O=C(CSc1nnc(-c2cccs2)o1)Oc1ccccc1,0%,0%
COc1ccc(-c2noc(CSc3nc4ccccc4[nH]3)n2)cc1,?,?
COc1ccc(-n2c3c(cc(-c4nc(-c5ccc(C)cc5)cs4)c2=O)C(=O)CC(C)(C)C3)cc1,1%,7%
COc1ccccc1CNC(=O)c1cccn1-c1nnc(N2CCCCC2)s1,-18%,-24%
Cc1cc(OCCn2cc(C(=O)c3ccco3)c3ccccc32)ccc1Cl,-26%,?
CCOC(=O)c1c(C)oc2nc(C)nc(N3CCN(c4cccc(C)c4C)CC3)c12,9%,-6%
CCC1CCCCN1CCCNC(=O)c1cc2c(Cl)nc3ccc(C)cc3c2s1 (centres undefined),-24%,?
COc1ccc(-c2cn3c(n2)sc2cc(C(=O)NC4CCCCCC4)ccc23)cc1,-1%,-38%
O=C(NC(=O)c1ccccc1)Nc1ccc(-c2cc(C(F)(F)F)nn2-c2ccccc2)cc1,4%,-3%
COc1cc(Cl)c(C)cc1NC(=O)c1cc2c(Cl)nc3ccc(C)cc3c2s1,-4%,-8%
Cc1cc(Nc2cccc(C(=O)O)c2)n2nc(C)nc2n1,3%,-14%
O=C(O)c1cc(=O)c2c(OCC(O)COc3cccc4oc(C(=O)O)cc(=O)c34)cccc2o1,1%&1%,·
Cc1c(C(=O)OC2CCCCC2)[nH]c2c1C(=O)CC(c1ccc(F)cc1)C2 (centres undefined),-23%,?
CCCCc1nn2c(=O)cc(COC(=O)c3ccc(NC(=O)C(CC)CC)cc3)nc2s1,?,-30%
Cc1ccc(C)c(Nc2nnc(-c3ccc(C)c(S(=O)(=O)NCC4CCCO4)c3)c3ccccc23)c1 (centres undefined),?,?

# Further compounds:
SMILES,HTT promoter inh,PMP22 txn prim
Cc1cccc(-c2nc(C)c(CCNC(=O)c3cccs3)s2)c1,3%,-24%
CCc1ccc(-n2c(=O)c3c4c(sc3n(Cc3ccccc3C#N)c2=O)CCCC4)cc1,15%,-3%
CN1C(=O)Cc2cc(S(=O)(=O)CCC(=O)Nc3ccccc3)ccc21,-16%,?
O=C(NCc1ccc(Cl)cc1)c1ccc(Cn2c(=O)c3cccn3c3cccnc32)cc1,-6%,-8%
COC(=O)c1c(NC(=O)c2nc(SCc3ccccc3C)ncc2Cl)sc2c1CCCC2,2%,1%
O=c1c(-c2ccc(O)cc2)coc2cc(O)ccc12,0%,·
CC(=O)N1CCCC1c1nc2ccccc2n1Cc1ccccc1Cl (centres undefined),-10%,24%
COc1ccc(C2CC(=O)N(CC(=O)Nc3cc(C)ccc3C)c3ccccc3S2)cc1 (centres undefined),-11%,-21%
Cc1ccccc1Cn1c(Oc2ccccc2F)nc2c1c(=O)n(C)c(=O)n2C,8%,2%
COc1ccc(OC)c(S(=O)(=O)NCCc2sc(C)nc2C)c1,-14%,4%
CN1C(CCl)Nc2cc(Cl)c(S(N)(=O)=O)cc2S1(=O)=O (centres undefined),3%,·
CCCC1=Nc2cc(C(=O)NCC(C)c3ccccc3)ccc2Sc2ccccc21 (centres undefined),?,?
CCCC(CCC)(C(=O)OCC)C(=O)OCC,4%,·
C[C@@H]1CN(Cc2ccc(F)cc2)[C@@H](C)CN1C(=O)c1cc2c(C(=O)C(=O)N(C)C)cn(C)c2cc1Cl,?,·
COc1ccc(CN2CCN(S(=O)(=O)c3ccccc3)CC2)c(OC)c1,-29%,?
CCN(CC)S(=O)(=O)c1ccc(NC(=O)CCc2c(C)nc3cc(-c4ccc(Cl)cc4)nn3c2C)cc1,?,7.8µM*
COc1cccc(CNC(=O)CCCn2c(=O)c3cccn3c3cccnc32)c1OC,11%,-32%
Cc1ccc(-c2noc(C3CC(=O)N(c4ccc5c(c4)OCCO5)C3)n2)cc1 (centres undefined),1%,-28%
Cc1ccccc1Nc1c(-c2ccc(Br)cc2O)nc2sccn12,-14%,-9%
COc1ccc(-n2ccnc2SCC(=O)Nc2cccc(OC)c2)cc1,?,-10%
COc1ccc(CNC(=O)C(=O)Nc2cccc(C)c2C)cc1,9%,-10%
COc1cc(C)ccc1OCCSc1nnc(-c2cccs2)o1,-23%[11.5 µM],-5%
Cc1ccc(NC(=O)CN2C(=O)CCn3nc(-c4cccn4C)cc32)cc1,12%,?
O=C(NCCCN1CCN(c2ccc(F)cc2)CC1)c1ccc2nc(CCc3ccccc3)oc2c1,-9%,?
COc1ccccc1-c1nc2c(c(SCC(=O)Nc3ccc(C)c(C)c3)n1)Cc1c(CO)cnc(C)c1O2,?,17µM*
CCCS(=O)(=O)N1CCC(N2CCN(Cc3ccc(F)cc3)C(=O)C2=O)CC1,19%,-3%
CCOC(=O)c1cc(S(=O)(=O)N2CCN(c3cc(C)ccc3C)CC2)[nH]n1,-4%,-8%
COc1ccc(-c2cc(C(F)(F)F)nc(S(=O)(=O)CCCC(=O)Nc3cccc(O)c3)n2)cc1OC,-9%,6µM*
Cc1cc(NC(=O)c2ccco2)cc(-c2nc3cc(Cl)ccc3o2)c1O,-20%,?
COc1ccccc1C(=O)Nc1ccccc1OCc1cc(=O)n2c(C)csc2n1,-2%,?
CC1=C(c2ccc(C(C)C)cc2)S(=O)(=O)NC1=NCc1ccccc1Br,?,?
Cc1nc2cc(-c3ccccc3)nn2c(C)c1CCC(=O)N1CCN(c2ccccc2)CC1,2.5µM*,-4%
Cc1ccc(CSc2nc3cccnc3n2Cc2ccc(C(=O)NCCc3cccs3)cc2)cc1,-37%,?
CC1=C(c2ccc(C)c(C)c2)S(=O)(=O)N=C1N1CCC(C(=O)N2CCCCC2)CC1,-24%,-39%
Cc1cc(NC(=O)CCNS(=O)(=O)c2ccc3c(c2)CCCC(=O)N3)ccc1Br,-28%,?
CN(C(=O)Cn1nnc(-c2ccc(S(C)(=O)=O)cc2)n1)c1ccccc1,-4%,-6%
CCc1ccc(NC(=O)CSc2nc(=O)n(Cc3ccco3)c3c2CCC3)cc1,?,?
CSc1ccc(CCNC(=O)CCCn2nc(C)c3sc4ccccc4c3c2=O)cc1,11%,?
Cc1cccc(-c2[nH]c(C(C)(C)C)nc2-c2ccc3c(c2)OCO3)n1,?,·
O=C(NCCc1ccc(Cl)cc1)c1ccc(CS(=O)(=O)Cc2ccc(Cl)cc2)o1,-19%,-49%
COC(=O)c1cc(NS(=O)(=O)c2cc(Br)cc3c2N(C(C)=O)CC3)cc(C(=O)OC)c1,-5%,-1%
O=C(Cn1c(=O)ccc2cc(S(=O)(=O)N3CCCC3)ccc21)NCc1ccc(F)cc1,-6%,-40%
Cc1ccc(C2=NN(CC(=O)NCCC(C)C)C(=O)CC2)cc1,-10%,-5%
O=C(NCc1ccc(Cl)cc1)C(=O)Nc1cccc(Br)c1,-14%[11.5 µM],16µM*
CCCOC(=O)c1cccc(NC(=O)CSc2nnc3cc(C)c4ccccc4n23)c1,-13%,-24%
Cc1ccc(Cn2c3ccccc3c3cnn(CC(=O)Nc4cc(Cl)ccc4C)c(=O)c32)cc1,-16%,0%
CCOC(=O)c1ccccc1NC(=O)N(Cc1ccc(C)cc1)Cc1cccn1-c1nnc(N2CCCC2=O)s1,-5%,-9%
CCOC(=O)c1cnc2c(Cl)cc(Cl)cc2c1Nc1cc(C(=O)O)ccc1C,-16%,-26%

# Compounds were not picked by outcome; any-hit rate near 2.6%.
